Assay outcomes (PubChem BioAssay)
DUX4 txn inh: DUX4-mediated transcription inhibition | 293T-iDUX4 ZSCAN4-Gaussia luciferase reporter, 24 h; hits give low values | activity change, negative = inhibition, % (concentration not given with the values) | AID 1224904 | 0.8% of 37,000 active;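 active = -10% or lower and over 25 points stronger than a control reporter; inconclusive = -10% or lower with a smaller gap; inactive = above -10%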;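 note: 0% = median of neutral control wells and -100% = median of positive control wells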
DUX4 txn inh difference: further read-out of DUX4 txn inh, marked with its call; Gaussia minus Italica difference, %; measured here: selective DUX4 reporter inhibition;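 worked out from the two reporters; negative = selective loss of the DUX4 reporter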
DUX4 txn inh control: second read-out of DUX4 txn inh, no call of its own (marks repeat the call); activity change, negative = inhibition, %; measured here: Italica tet-on control reporter;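 0 = neutral control and -100 = positive control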
* hit, by the source's call; u = inconclusive; x = no result given; & = joins results of further samples.

SMILES | DUX4 txn inh | DUX4 txn inh difference | DUX4 txn inh control
CCCc1cn(CC[C@H]2CC[C@@H](NC(=O)C3CCOCC3)[C@@H](CO)O2)nn1 | 3.7 | -0.8 | 4.5
CCCC#Cc1ccc([C@H]2[C@H](CO)N3C(=O)CN(C(=O)c4cccc(F)c4)C[C@@H]23)cc1 | u | x | x
C[C@@H]1CN([C@@H](C)CO)C(=O)CCCn2cc(nn2)CO[C@H]1CN(C)S(=O)(=O)c1ccc(-n2cccn2)cc1 | 5.3 | 9.8 | -4.5
CCNC(=O)[C@H]1[C@H](CO)[C@H]2Cn3c(ccc(-c4ccccc4)c3=O)[C@H]2N1C(=O)C1CC1 | 2.6 | -3.2 | 5.8
C[C@@H]1CN([C@H](C)CO)C(=O)c2ccccc2-c2ccccc2CO[C@@H]1CN(C)S(=O)(=O)c1cccc(F)c1 | 0.6 | -3.5 | 4.1
COc1cccc(NC(=O)N2CC(=O)N3[C@H](CO)[C@@H](c4ccc(Br)cc4)[C@@H]3C2)c1 | 5.4 | 3.2 | 2.2
CC=Cc1ccc2n(c1=O)C[C@H]1[C@H](CO)[C@@H](C(=O)NCCc3cn(C)cn3)N(C(=O)CC)[C@@H]21 (mixture of isomers) | -4.9 | -5.6 | 0.7
COc1cccc(S(=O)(=O)N2CC[C@@H]3[C@H](CO)N(C)c4ccc(C#Cc5cccnc5)cc4[C@@H]32)c1 | u | x | x
C[C@H](NC(=O)C[C@@H]1C[C@@H]2c3cc(NC(=O)C4CCOCC4)ccc3O[C@@H]2[C@@H](CO)O1)c1ccccc1 | -2.3 | -1.1 | -1.2
COc1ccc2c3c(n(C)c2c1)[C@H](CO)N(C(=O)c1ccccn1)CC31CN(C(=O)Cc2ccccc2)C1 | 8.1 | 6.7 | 1.3
CCOC(=O)N(C)C[C@H]1OCc2ccccc2-c2c(n(C)c3ccccc23)C(=O)N([C@@H](C)CO)C[C@H]1C | 16.7 | 10.1 | 6.6
CN(C)C(=O)c1cccc(-c2ccc([C@H]3[C@@H](CO)N4C(=O)CN(C(=O)Cc5ccccc5)C[C@@H]34)cc2)c1 | -2.7 | -4.8 | 2.1
Cc1ccccc1-c1cnc2c(c1)C(=O)N([C@H](C)CO)C[C@@H](C)[C@@H](CN(C)CC1CCOCC1)O2 | 0.6 | -3.6 | 4.2
Cc1nn(C)cc1NC(=O)C[C@@H]1CC[C@@H]2[C@@H](COc3ccc(NC(=O)NC(C)C)cc3C(=O)N2C)O1 | 1.6 | 2.7 | -1.1
O=S(=O)(c1ccccc1F)N1[C@@H]2CNC[C@H]1C2c1ccc(-c2ccncc2)cc1 (stereo not given in full) | -2.0&14.4 | 2.2&20.5 | -4.2&-6.1
CN(C)C(=O)c1cc2c(c(-c3cccc(-c4ccccc4F)c3)n1)[C@H](CCO)N(S(C)(=O)=O)C2 | 0.3 | 1.4 | -1.1
COc1ccccc1CN1CC[C@@H]2[C@H]1c1cc(C3=CCCCC3)ccc1N[C@@H]2CO | -9.5 | -8.0 | -1.6
CCNC(=O)c1cc2c(c(-c3cccc(-c4ccccc4F)c3)n1)[C@H](CCO)N(C(=O)CC1CC1)C2 | 2.5 | 2.2 | 0.4
CC=Cc1ccc2n(c1=O)C[C@H]1[C@H](CO)[C@@H](C(=O)NCCC)N(Cc3cccc(F)c3)[C@@H]21 (mixture of isomers) | -3.5 | 1.0 | -4.4
COc1ccc(NC(=O)N2CC(=O)N3[C@H](CO)[C@@H](c4ccc(/C=C/c5ccccc5)cc4)[C@H]3C2)cc1 | -5.3 | -1.3 | -4.0
COc1ccc(S(=O)(=O)N2[C@@H]3CNC[C@H]2C3c2ccc(-c3cccc(OC)c3)cc2)cc1 (stereo not given in full) | 10.5&3.6 | 7.2&-7.5 | 3.3&11.0
CN1C(=O)c2cc(NC(=O)c3cccs3)ccc2OC[C@H]2O[C@H](CC(=O)NCC3CC3)CC[C@H]21 | 2.4 | 3.0 | -0.7
O=C(Cc1ccccn1)N[C@@H]1CC[C@H](CCNS(=O)(=O)c2cccc(F)c2)O[C@@H]1CO | u | x | x
COC(=O)C[C@H]1CC[C@@H]2[C@H](COc3ccc(NC(=O)c4cccc(F)c4)cc3C(=O)N2C)O1 | 3.4 | 3.2 | 0.2
CN1C(=O)c2cc(NC(=O)Cc3ccccc3)ccc2OC[C@@H]2O[C@H](CC(=O)NC3CCC3)CC[C@H]21 | -6.4 | -5.2 | -1.2
CO[C@H]1CN(C)C(=O)c2ccc(NC(=O)C3CCCC3)cc2OC[C@H](C)N(CCC(F)(F)F)C[C@H]1C | -9.7 | -13.5 | 3.8
O=C(NCc1ccc(F)cc1)[C@H]1[C@H](CO)[C@H]2Cn3c(ccc(-c4cccnc4)c3=O)[C@@H]1N2 | 3.0 | 1.5 | 1.5
CN(C)C(=O)C[C@@H]1C[C@@H]2c3cc(NC(=O)C4CCOCC4)ccc3O[C@@H]2[C@H](CO)O1 | 6.9 | 8.1 | -1.2
COc1ccccc1CN(C)C[C@H]1OCc2cnnn2CCCC(=O)N([C@@H](C)CO)C[C@@H]1C | 5.4 | 2.9 | 2.5
Cc1ccccc1S(=O)(=O)N1CCCCN2[C@H](CO)[C@@H](c3ccc(-c4cccnc4)cc3)[C@H]2C1 | -5.1 | -5.3 | 0.1
O=C(NC1CCC1)[C@@H]1[C@@H](CO)[C@@H]2Cn3c(ccc(-c4cncnc4)c3=O)[C@H]1N2CCc1ccccc1 | 6.6 | -2.1 | 8.7
O=C(c1cccnc1)N1CC(=O)N2[C@H](CO)[C@H](c3ccc(/C=C/c4ccccc4)cc3)[C@H]2C1 | -8.5 | 0.2 | -8.6
C[C@@H]1CN([C@H](C)CO)C(=O)CCCn2cc(nn2)CO[C@H]1CN(C)C | -6.8 | -6.6 | -0.2
COc1cccc(S(=O)(=O)N2CCCCN3[C@@H](CO)[C@@H](c4ccc(C#CC5CC5)cc4)[C@@H]3C2)c1 | 5.9 | -5.6 | 11.4
CO[C@@H]1CN(C)C(=O)c2cc(NC(=O)C3CC3)ccc2OC[C@H](C)N(Cc2cc(F)ccc2F)C[C@@H]1C | u | x | x
N#C[C@H]1[C@@H](c2ccccc2-c2cccc(F)c2)[C@@H](CO)N1C(=O)C1CC1 | -6.5 | -4.6 | -1.9
COc1cccc(S(=O)(=O)N2C[C@H](O)COC[C@H]3O[C@@H](CC(=O)N4CCN(c5ccccc5)CC4)CC[C@@H]32)c1 | -7.0 | -12.7 | 5.8
C[C@H]1CCCCO[C@H](CN(C)Cc2ccc(C(=O)Nc3ccccc3N)cc2)[C@@H](C)CN([C@@H](C)CO)C(=O)c2cc(N(C)C)ccc2O1 | 5.2 | -0.6 | 5.8
COc1ccc2c3c([nH]c2c1)[C@H](CO)N(C(=O)CN(C)C)CC31CN(Cc2ccncc2)C1 | 7.1 | 7.3 | -0.2
COc1ccc2c3c(n(C)c2c1)[C@H](CO)N(C(=O)Nc1ccc(F)cc1)CC31CN(C)C1 | 9.6 | 8.0 | 1.6
O=C(C[C@H]1C[C@H]2c3cc(NC(=O)Nc4ccc(C(F)(F)F)cc4)ccc3O[C@H]2[C@H](CO)O1)NCCc1ccccc1 | -1.1 | -5.9 | 4.8
CCCNC(=O)N(C)C[C@@H]1Oc2cc(C#C[C@@H](C)O)ccc2S(=O)(=O)N([C@H](C)CO)C[C@H]1C | 5.1 | 2.7 | 2.4
CCCNC(=O)N1CC2(C1)[C@H](c1ccccc1)[C@H](CO)N2Cc1cccc(F)c1 | 5.4 | 7.1 | -1.7
Cn1cnc(S(=O)(=O)N2C[C@H](O)COC[C@@H]3O[C@H](CC(=O)NCc4cc(F)cc(F)c4)CC[C@H]32)c1 | 1.8 | 4.1 | -2.3
C/C=C/c1ccc([C@H]2[C@@H](CO)N3CCCCN(C(=O)NC4CCCC4)C[C@H]23)cc1 | 12.0 | 8.4 | 3.7
C[C@@H]1CCCCO[C@H](CN(C)S(=O)(=O)c2ccc(Cl)cc2)[C@H](C)CN([C@@H](C)CO)C(=O)c2cc(NC(=O)CCCN(C)C)ccc2O1 | -2.9 | -5.0 | 2.1
O=C(c1cccnc1)N1CC(=O)N2[C@H](CO)[C@@H](c3ccc(-c4ccccc4F)cc3)[C@H]2C1 | 10.0 | 5.0 | 5.0
C/C=C/c1cnc2c(c1)C(=O)N([C@@H](C)CO)C[C@H](C)[C@H](CN(C)C(=O)NC1CCCC1)O2 | -0.5 | 6.5 | -6.9
C[C@@H]1CN([C@H](C)CO)C(=O)c2ccccc2-c2ccccc2CO[C@H]1CN(C)C(=O)Nc1ccccc1C(F)(F)F | -0.1 | -0.7 | 0.6
C[C@H](CO)N1C[C@H](C)[C@@H](CN(C)CC2CC2)Oc2cc(-c3cccc(C#N)c3)ccc2S1(=O)=O | -0.3 | -2.1 | 1.8
Next results follow.
SMILES | DUX4 txn inh | DUX4 txn inh difference | DUX4 txn inh control
O=C(C[C@H]1CC[C@@H]2[C@H](COC[C@@H](O)CN2C(=O)Nc2ccc(F)cc2)O1)NCC1CC1 | 0.7 | -2.9 | 3.6
CCS(=O)(=O)N1CC(=O)N2[C@@H](CO)[C@H](c3ccc(-c4ccccc4C)cc3)[C@@H]2C1 | 6.5 | 2.0 | 4.5
CN1CCN(C(=O)C[C@H]2CC[C@H]3[C@@H](COC[C@@H](O)CN3S(=O)(=O)c3cccc(F)c3)O2)CC1 | 8.2 | 8.8 | -0.6
O=C(C[C@H]1CC[C@H]2[C@@H](COC[C@@H](O)CN2Cc2nccs2)O1)NCc1ccccc1Cl | 0.7 | 5.7 | -5.0
CN1C[C@@H]2[C@H](c3ccccc31)[C@H](CO)N2C(=O)Nc1ccccc1 | -2.0 | -0.2 | -1.8
O=C(C[C@@H]1CC[C@@H]2[C@H](COC[C@@H](O)CN2Cc2nccs2)O1)NCc1ccc(-c2ccccc2)cc1 | u | x | x
CS(=O)(=O)N1CC(=O)N2[C@@H](CO)[C@@H](c3ccc(Br)cc3)[C@@H]2C1 | 6.3 | 2.3 | 4.0
C[C@@H]1CCCCO[C@@H](CN(C)S(=O)(=O)c2ccc(Cl)cc2)[C@H](C)CN([C@H](C)CO)C(=O)c2cc(NC(=O)Nc3ccc(C(F)(F)F)cc3)ccc2O1 | 6.5 | -0.1 | 6.7
C[C@H](NC(=O)C[C@@H]1C[C@@H]2c3cc(NS(=O)(=O)c4ccc(F)cc4)ccc3O[C@@H]2[C@@H](CO)O1)c1ccccc1 | u | x | x
COc1ccc(NC(=O)N2CCCCN3[C@@H](CO)[C@@H](c4ccc(C#Cc5ccccn5)cc4)[C@@H]3C2)cc1 | 16.0 | 11.1 | 4.9
C[C@@H](NC(=O)C[C@H]1CC[C@H]2[C@@H](COC[C@@H](O)CN2Cc2ccc(C(F)(F)F)cc2)O1)c1ccccc1 | -4.7 | 3.1 | -7.8
COc1cccc(C#Cc2ccc([C@H]3[C@@H](C#N)N(C(=O)C4CC4)[C@@H]3CO)cc2)c1 | 3.3 | -1.5 | 4.8
CCCNC(=O)N[C@@H]1CC[C@H](CC(=O)NC2CCC2)O[C@@H]1CO | 1.9 | -1.7 | 3.5
O=C(C[C@H]1CC[C@H]2[C@@H](COC[C@H](O)CN2S(=O)(=O)c2ccccc2)O1)N1CCOCC1 | 9.7 | 7.0 | 2.7
C[C@@H]1CN([C@H](C)CO)C(=O)CCCn2nncc2CO[C@@H]1CN(C)C(=O)Nc1ccc(F)cc1 | 0.4 | -0.4 | 0.8
CNC[C@@H]1OCc2cnnn2CCCC(=O)N([C@@H](C)CO)C[C@H]1C | -1.4 | -1.1 | -0.4
CN(C)C(=O)C[C@H]1C[C@@H]2c3cc(NC(=O)NC4CCCC4)ccc3O[C@@H]2[C@H](CO)O1 | 5.4 | 0.3 | 5.1
Cc1noc(C)c1S(=O)(=O)N(C)C[C@@H]1OCCCC[C@H](C)Oc2ccc(NS(=O)(=O)c3cn(C)cn3)cc2C(=O)N([C@@H](C)CO)C[C@H]1C | 1.4 | 0.5 | 0.8
CCCC#Cc1ccc([C@H]2[C@@H](CO)N(S(C)(=O)=O)[C@H]2C#N)cc1 | 0.8 | -0.3 | 1.1
O=C(C[C@H]1C=C[C@@H](NC(=O)C2CCC2)[C@@H](CO)O1)NCc1ccccc1Cl | 1.2 | 5.7 | -4.5

Ten entries already listed, sorted by heavy-atom count, ascending:
SMILES | DUX4 txn inh | DUX4 txn inh difference | DUX4 txn inh control
CCCC#Cc1ccc([C@H]2[C@@H](CO)N(S(C)(=O)=O)[C@H]2C#N)cc1 | 0.8 | -0.3 | 1.1
CNC[C@@H]1OCc2cnnn2CCCC(=O)N([C@@H](C)CO)C[C@H]1C | -1.4 | -1.1 | -0.4
O=C(C[C@H]1C=C[C@@H](NC(=O)C2CCC2)[C@@H](CO)O1)NCc1ccccc1Cl | 1.2 | 5.7 | -4.5
COc1cccc(C#Cc2ccc([C@H]3[C@@H](C#N)N(C(=O)C4CC4)[C@@H]3CO)cc2)c1 | 3.3 | -1.5 | 4.8
CN(C)C(=O)C[C@H]1C[C@@H]2c3cc(NC(=O)NC4CCCC4)ccc3O[C@@H]2[C@H](CO)O1 | 5.4 | 0.3 | 5.1
O=C(C[C@H]1CC[C@H]2[C@@H](COC[C@H](O)CN2S(=O)(=O)c2ccccc2)O1)N1CCOCC1 | 9.7 | 7.0 | 2.7
COc1ccc(NC(=O)N2CCCCN3[C@@H](CO)[C@@H](c4ccc(C#Cc5ccccn5)cc4)[C@@H]3C2)cc1 | 16.0 | 11.1 | 4.9
C[C@H](NC(=O)C[C@@H]1C[C@@H]2c3cc(NS(=O)(=O)c4ccc(F)cc4)ccc3O[C@@H]2[C@@H](CO)O1)c1ccccc1 | u | x | x
Cc1noc(C)c1S(=O)(=O)N(C)C[C@@H]1OCCCC[C@H](C)Oc2ccc(NS(=O)(=O)c3cn(C)cn3)cc2C(=O)N([C@@H](C)CO)C[C@H]1C | 1.4 | 0.5 | 0.8
C[C@@H]1CCCCO[C@@H](CN(C)S(=O)(=O)c2ccc(Cl)cc2)[C@H](C)CN([C@H](C)CO)C(=O)c2cc(NC(=O)Nc3ccc(C(F)(F)F)cc3)ccc2O1 | 6.5 | -0.1 | 6.7

The list is partial. The share of hits here may be higher or lower than overall.
